# NPYLR7 agonist = mosquito NPYLR7 agonism; HEK293T NPYLR7/Galpha15, GCaMP6s calcium fluorescence; activation, % at 10 µM; 270,000 compounds, 0.15% hits; AID 1259423; in the data active = activation above about 40%;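 note: 0% = vehicle and 100% = reference agonist at the receptor; some compounds past the cut are filed as inactive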
# NPYLR7 agonist max-min = further read-out of NPYLR7 agonist, marked with its call; activation, %; measured here: Max-Min RFU normalised activation; some inactives read as strong as hits;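 span of the calcium signal over five minutes; 0% = vehicle and 100% = native peptide agonist; compound fluorescence can raise it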
# * hit, by the source's call. Some of the compounds tested (hit frequency here may not be typical).
# Every second line gives: NPYLR7 agonist, NPYLR7 agonist max-min
CCC(C(=O)Nc1ccc(N2CCC(Cc3ccccc3)CC2)c(C(=O)NCCOC)c1)c1ccccc1 (stereo not drawn)
→ -7, 8
Cn1c(Nc2ccccc2)nc2cnc(Nc3ccc(S(C)(=O)=O)cc3)cc21
→ 10, -4
O=c1[nH]c(CN2CCN(CCO)CC2)nc2ccccc12
→ 1, -2
CCCCC(O)CN(Cc1ccccc1)Cc1c(C)nn(-c2ccccc2)c1Oc1ccccc1 (stereo not drawn)
→ -7, -6
CN1C(=O)NC(c2cccc([N+](=O)[O-])c2)C2=C1CCCC2=O (stereo not drawn)
→ -5, -10
Cc1cc(OCc2nc(C(=O)NCCN3CCOCC3)cs2)ccc1Cl
→ 15, 10
CC1(C(=O)NCc2ccc3c(c2)OCO3)CCN1C(=O)Cc1cccs1 (stereo not drawn)
→ -1, 2
COc1cc(F)c(-c2c(-c3ccccc3)ncn2CCCO)cc1OC
→ 7, 5
Cc1c(C(=O)NCc2ccc(C#N)cc2)sc(=O)n1Cc1ccc(C(C)C)cc1
→ 10, 5
Cc1noc(-c2ccc(N(C)Cc3ccncn3)nc2)n1
→ -26, -23
Cc1cccc(-n2c(SCc3ccc(C(=O)NCc4ccc5c(c4)OCO5)cc3)nnc2-c2ccncc2)c1
→ -1, 5
CCc1ccc(C(=O)N(CC(=O)N(Cc2ccc(F)cc2)Cc2ccco2)C(C)C)cc1
→ -2, 2
COc1ccc(-c2cc(C(=O)NCCN3CCCC3)c(C)n2-c2ccccc2F)cc1
→ -9, 5
O=C(CN1CCOc2ccccc2C1)NCc1cn[nH]c1-c1cccs1
→ -4, -7
O=C(CCl)Nc1cc(C(F)(F)F)ccc1N1CCCCC1
→ 1, 0
CCCCOc1ccc(C(=O)Oc2coc(CSc3nncn3C)cc2=O)cc1
→ -2, -7
O=C(c1ccc2c3c(cccc13)CC2)C1CCCN(C(=O)c2cnn3cccnc23)C1 (stereo not drawn)
→ 2, 2
CCCc1sc(C(=O)O)cc1-c1ccncc1
→ 12, 8
O=C1CN(Cc2cccn2-c2ncccn2)CC(OCc2ccccn2)CN1C1CCCCC1 (stereo not drawn)
→ 10, -3
COc1ccccc1-c1nnc(SCc2ccccc2F)n1-c1cccc(C)c1
→ -1, 6
COC(=O)CN(c1cc(Cl)ccc1C)S(=O)(=O)c1ccc(C)cc1
→ -1, -2
CN(C(=O)c1cc(N2CC[C@@H](O)C2)ccn1)C1CCCCC1
→ 8, 5
CCOC(CNC(=O)c1c(O)nc2sccn2c1=O)OCC
→ -1, 7
Cc1noc(C)c1CCC(=O)N1CCOC(CCCC(C)C)C1 (stereo not drawn)
→ 4, 2
CCC(C(=O)N1CCN(Cc2cc(=O)c(OCc3ccc(F)cc3)co2)CC1)c1ccccc1 (stereo not drawn)
→ 27, 9
CN(Cc1nc(Cc2ccccc2Cl)no1)Cc1cccc2cnccc12
→ 18, 9
CCc1ccc(OCCSc2nc3ccccc3n2CCC(=O)O)cc1
→ 1, -2
CN1CCCN(CC2CC3C=CC2C3)CC1 (stereo not drawn)
→ -12, -20
COC(=O)C1=C(C)N(CCc2ccccc2)C(=O)C1(NC(=O)c1ccccc1)C(F)(F)F (stereo not drawn)
→ 9, 5
COC(=O)CCCC(=O)N1CCc2c([nH]c3ccccc23)C1c1ccccc1F (stereo not drawn)
→ -6, -8

# Grouped by structure: the entries above with a CF3 group (2)
# Every second line gives: NPYLR7 agonist, NPYLR7 agonist max-min
O=C(CCl)Nc1cc(C(F)(F)F)ccc1N1CCCCC1
→ 1, 0
COC(=O)C1=C(C)N(CCc2ccccc2)C(=O)C1(NC(=O)c1ccccc1)C(F)(F)F (stereo not drawn)
→ 9, 5

# Additional structures follow:
# Every second line gives: NPYLR7 agonist, NPYLR7 agonist max-min
Cc1nc(CN2CCN(Cc3nc(CCc4ccccc4)no3)CC2)cs1
→ 0, -3
CCN1C(=O)NC(c2ccc(Cl)cc2Cl)C2=C1CN(CC(=O)Nc1cccc(OCc3ccccc3)c1)C2=O (stereo not drawn)
→ -1, 1
O=C(Nc1cccc(Br)c1)Nc1ccc(N2CCCC2)c(C(=O)NCC2CCCO2)c1 (stereo not drawn)
→ -1, -8
COc1ccc(CCC(=O)Nc2cccnc2)cc1F
→ 0, 0
Cc1ccccc1Cn1ccnc1CN(Cc1ccco1)C(=O)CC(C)C
→ 25, 29
C=CCn1c(=NC(=O)c2cccc(N3C(=O)CCC3=O)c2)sc2cc(C(=O)OC)ccc21
→ 3, -1
C=CCN(Cc1nccn1Cc1cc(C)ccc1C)C(=O)C1CCCC1
→ 20, 27
CCOC(=O)C1CCCN(C(=O)c2cc(-c3ccc(Cl)cc3)n(-c3ccccc3OC)c2C)C1 (stereo not drawn)
→ -12, -12
CCNC(=O)NCC1CCN(Cc2cc3ccccc3[nH]2)CC1
→ -1, -3
CCCCOc1ccc(-c2cc3c(=O)n(Cc4nc(-c5ccccc5Cl)no4)ccn3n2)cc1
→ 0, -4
CCc1cc2c(=O)c(-c3nncn3-c3ccccc3)c(N)oc2cc1O
→ 7, 4
S=c1[nH]nc(CN2CCCC2)n1-c1ccc(Cl)cc1
→ 2, 8
Cc1cc(C)cc(N2CCC(NCC3CN(S(C)(=O)=O)CCO3)CC2)c1 (stereo not drawn)
→ -3, -8
Cc1cc(=O)[nH]c(SCc2nc3ccccc3[nH]2)n1
→ 6, 1
COc1cccc(-c2nc(C(N)=O)c3[nH]c(=O)n(-c4ccc(C(C)(C)C)cc4)c3n2)c1O
→ -5, -7
COc1ccc2nc(-c3cccc(NC(=O)Nc4ccc(F)cc4)c3)cn2n1
→ 2, 2
CN1CCC(N(Cc2cccnc2)Cc2ccc3occc3c2)CC1
→ 3, 9
COc1ccc(C)c2sc(N(Cc3ccccn3)C(=O)/C=C/c3cccs3)nc12
→ 2, -6
CN(C)C(=O)CNc1c(Cl)cccc1Cl
→ 4, 2
O=C(O)CCn1c(C2CCCCC2)n[nH]c1=O
→ -6, -10
CCC(C)CN(CC(=O)N(Cc1ccccc1)Cc1ccc(C)s1)C(=O)Nc1ccc(Br)cc1 (stereo not drawn)
→ 0, -10
CC1(C(=O)Nc2ccccc2Cc2ccccc2)CCN1Cc1ccc(OC(F)(F)F)cc1 (stereo not drawn)
→ -2, -7
C[C@@H](c1ccccc1)N1CCC1C(O)(c1ccccc1)c1ccccc1 (stereo partly drawn)
→ 1, -2
C1=C(CCn2ccnc2C2CCOC2)CCCC1 (stereo not drawn)
→ 2, 0
O=S(=O)(Nc1ccccc1)c1cc(Br)ccc1Br
→ -7, -11
CC1(C(=O)NC2Cc3ccccc3C2)CCN1C(=O)Cc1ccccc1Cl (stereo not drawn)
→ 0, -1
CSCC(=O)N1CCCC(N2CCN(c3cccc(C(F)(F)F)c3)CC2)C1 (stereo not drawn)
→ 2, 1
Cc1cc(C(O)c2ncc(-c3cccc4ccccc34)[nH]2)ccc1F (stereo not drawn)
→ 1, -1
O=C(NCCCc1ccc(F)cc1)C1CCC(=O)N(CCN2CCOCC2)C1 (stereo not drawn)
→ 3, 2
CCCCn1c(=O)c2c(nc3n2CC(C)CN3CCc2ccccc2)n(C)c1=O (stereo not drawn)
→ -1, -1

# Laid out differently: entries from further up.
Structure | NPYLR7 agonist | NPYLR7 agonist max-min
O=C(CCl)Nc1cc(C(F)(F)F)ccc1N1CCCCC1 | 1 | 0
CCNC(=O)NCC1CCN(Cc2cc3ccccc3[nH]2)CC1 | -1 | -3
CCCCC(O)CN(Cc1ccccc1)Cc1c(C)nn(-c2ccccc2)c1Oc1ccccc1 (stereo not drawn) | -7 | -6
Cc1c(C(=O)NCc2ccc(C#N)cc2)sc(=O)n1Cc1ccc(C(C)C)cc1 | 10 | 5
COc1ccc(CCC(=O)Nc2cccnc2)cc1F | 0 | 0
Cc1nc(CN2CCN(Cc3nc(CCc4ccccc4)no3)CC2)cs1 | 0 | -3

# Continuation.
# Every second line gives: NPYLR7 agonist, NPYLR7 agonist max-min
O=C(NCC(F)(F)F)C1CCN(c2ccc(Cl)cn2)CC1
→ 6, 3
C=CCNC(=O)Cc1ccc(NC(=O)CCC)cc1
→ 10, 8
COc1ccccc1-c1c(C)nn2c(N3CCN(CC#N)CC3)cc(C)nc12
→ 3, 11
COc1ccc(CCc2nc3cc(-c4c(C)noc4C)ccc3n2C[C@H](C)N2CCOCC2)cc1Cl
→ -1, -4
CCCc1ccc(S(=O)(=O)N2CCN(CC(=O)Nc3cc(C(C)C)no3)CC2)cc1
→ 7, 0
CCC(=O)N(Cc1ccco1)Cc1nccn1Cc1ccccc1Cl
→ 13, 14
CN(C)C(=O)C1CSCN1C(=O)c1cnn(C2CCCCC2)c1 (stereo not drawn)
→ 10, 6
Cc1ccc2c(c1)OC(C)CN2C(=O)CNC(=O)c1cccs1 (stereo not drawn)
→ 4, 5
COCc1cc(C)nc(OCC(=O)N/N=C\c2cc(OC)ccc2OC)c1C#N
→ -7, -14
Cc1nnc2n1N=C(c1ccc(-c3cc(Cl)cc(Cl)c3)o1)CS2
→ 4, 1
O=C(NC(c1ccccc1)c1ccsc1)C1CCN(Cc2ccccn2)CC1 (stereo not drawn)
→ 11, -1
O=C(NCCn1ncc2c(=O)n(Cc3ccc(Br)cc3)cnc21)c1cc2ccccc2o1
→ -2, -7
CNc1nc2cnc(Nc3ccccc3Cl)cc2n1CCOC
→ 8, -4
Cc1cc(NC(=O)c2ccccc2Cl)n(-c2ncnc3c2cnn3-c2ccccc2)n1
→ 8, 6
CC1C(=O)N(c2ccc(Cl)cc2)CCN1C(=O)COc1ccc(Cl)cc1 (stereo not drawn)
→ -1, 10
CCCCNS(=O)(=O)C1CCS(=O)(=O)C1 (stereo not drawn)
→ 7, 2
C=CCn1c(-c2c(C)nc3cc(C)ccn23)n[nH]c1=S
→ 14, 12
Cc1nc(NC2CCN(C3CC3)CC2)c2c3c(sc2n1)CCC3
→ 1, 1
N#Cc1ccc(C=NNC(=S)NN=Cc2ccc(C#N)cc2)cc1
→ 2, 10
CC=CCN1N=C(c2ccc(Cl)cc2)Cn2c1nc1c2c(=O)n(C)c(=O)n1C
→ 2, -1
Cc1ccc(S(=O)(=O)N2CCN(c3cccc(C(F)(F)F)c3)C(=O)C2C)cc1 (stereo not drawn)
→ -1, 3
Cn1ccnc1SCCNC(=O)CC1C(=O)NCCN1C1CCCC1 (stereo not drawn)
→ 9, 2
Cc1cc(CN2CCc3ccccc3C3(CCC(NC4CCN(C)C4)CC3)C2)no1 (stereo not drawn)
→ 10, 7
Cc1ccc[n+](C2=C(c3c(C(C)C)[nH]n(-c4ccc(Cl)cc4)c3=O)C(=O)N(C(C)C)C2=O)c1
→ -5, -4
C=CCN(CC(=O)N(Cc1ccco1)Cc1cccn1C)C(=O)Nc1ccc(OC)cc1
→ 18, 10
CCc1cc2c(Nc3cccc(C(=O)OC)c3)ncnc2s1
→ 4, 0
CC1CC(C)CN(S(=O)(=O)c2ccc(NC(=O)CCl)cc2)C1 (stereo not drawn)
→ -4, -7
CC(C)(C)NC(=O)N(Cc1ccccc1)CC1CC(c2ccc(Cl)cc2)=NO1 (stereo not drawn)
→ 26, 31
CCOC(=O)CC(=O)N1CCN(Cc2cc(=O)c(OCc3cc(C)cc(C)c3)co2)CC1
→ 1, -3
COc1cccc(NC(=O)CCC2CCN(C(=O)NCc3ccccc3)CC2)c1
→ -3, -8

# Every second line gives: NPYLR7 agonist, NPYLR7 agonist max-min
O=C(CN1CCN(C(=O)Nc2ccccc2F)CC1)N1CCCCC1
→ 14, 11
COc1ccccc1CNC(=O)CSc1ccc(NC(=O)C2CC2)nn1
→ 1, -1
Nc1nc(N2CCN(Cc3ccccc3)CC2)nc(N2CCCC2)c1[N+](=O)[O-]
→ 11, 10
C=CCC1(CC=C)CCCN1C(=O)c1cc(C)c(C)c(S(N)(=O)=O)c1
→ 15, 2
CCc1nc2ccc(C(=O)Nc3cc(-c4ccccc4)ccc3OC)cn2c1N(C)C(=O)c1cccc(OC)c1
→ 5, 19
CCOC(=O)N1CCN(C(C)C(=O)NC(C)c2ccc(Cl)cc2Cl)CC1 (stereo not drawn)
→ 5, 2
NC(=O)c1ccsc1NC(=O)c1ccc(C(F)(F)F)cc1
→ -3, -3
C=CCn1c(SC2CCCCNC2=O)nnc1C1CCS(=O)(=O)C1 (stereo not drawn)
→ -3, -4
COc1ccccc1C(=O)N1CCN(c2ccc(F)cc2F)C(=O)C1C (stereo not drawn)
→ 0, 8
CC(=O)Nc1nc(NC(C)=O)c2nc(COC(C)=O)cnc2n1
→ -2, -1
O=C(C1COCCN1)N1CCOc2c(O)cc(-c3cccc(Cl)c3)cc2C1 (stereo not drawn)
→ 9, 4
COc1cc(C)c(NC(=O)CC2CC3CCC2C3)cc1OC (stereo not drawn)
→ 4, 0
O=C(C1COc2ccccc2O1)N1CCN(C(c2ccccc2)c2ccc(F)cc2)CC1 (stereo not drawn)
→ 16, 6
CC1=NC2(C)CCCCC2c2c(C)ccc(C)c21 (stereo not drawn)
→ 0, 46
COc1ccc(-c2cnccc2N)cn1
→ 3, 4
CC1C(=O)N(c2ccccc2)CCN1Cc1ccccc1 (stereo not drawn)
→ -1, 6
O=C1OCCN1CCN1Cc2ccccc2C(c2ccccc2)C1 (stereo not drawn)
→ 4, 2
CC1(NC(=O)N2CCCCCC2)CCS(=O)(=O)C1 (stereo not drawn)
→ 1, 0
COc1ccc([N+](=O)[O-])cc1NC(=O)COC(=O)c1c(C)oc(C)c1C
→ 4, 5
COc1ccccc1CCNC(=O)CCn1c(=O)sc2ccccc21
→ -3, 4
C=CCSc1nnc2c(n1)OC1(Nc3ccccc3-2)C(=O)Nc2ccc(Br)cc21 (stereo not drawn)
→ 7, 7
CC(N)=C(C#N)C(=O)COC(=O)C(C)C
→ 2, 46
COc1ccc(CN2CCN(c3cccnc3)CC2)c(OC)c1OC
→ -8, -8
Cc1ccc(C2c3ccsc3CCN2C(=O)CN(C(=O)COCc2ccccc2)C2CC2)cc1 (stereo not drawn)
→ 16, 12
CCOC(=O)C(C#N)=CNc1sc(C)c(C)c1C(=O)OCC
→ -4, -5
Cc1cc(C2=CSC3=NS(=O)(=O)CCN23)c(C)s1
→ 16, 11
CCc1ccccc1NC(=O)c1c(N)c(C(=O)c2cccc(OC)c2)n2ccccc12
→ -1, -9
C=CCn1c2c(c(=O)[nH]c1=S)CN(CC1CCCO1)CN2 (stereo not drawn)
→ 1, 41
